Assay outcomes: PubChem BioAssay, several laboratories
A1 inh = inhibitors of the anti-apoptotic protein A1, read as caspase activation | MEF A1-2A-BIM cells, Caspase-Glo 3/7 luminescence, 3 h; percent of clofoctol response, vehicle zero | caspase activation, % (no concentration beside the values) | 0.066% of 330,000 active | AID 2462;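 active = over half of replicate activation scores above 10%, or exactly half above 10 with the replicate mean above 10; inconclusive = replicate mean below 10 yet half the replicates above 10; inactive = over half of replicates below 10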;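 note: wells of about 30 µL received 50 nL stock; many hits fall short of the cut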
Vif A3G = inhibitors of Vif binding to APOBEC3G peptide, primary screen, biochemical, TR-FRET, GST-Vif 1-94, biotin-A3G peptide, dose response retest (AID 1117319); TR-FRET GST-Vif / biotin-A3G peptide binding; higher % means a stronger effect; test concentration not given here; strong numbers were not always called active; inhibition, %; hits with a dose series show IC50 in µM; 0.57% of 260,000 active;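 active = above the screen mean plus three standard deviations and confirmed in dose response; inconclusive = results disagree or hit not tested in dose response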;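 note: Vif residues 1-94 fused to GST binding biotinylated APOBEC3G peptide 110-148; 0% = full assay without inhibitor and 100% = GST in place of GST-Vif; retest series ran down from 100 µM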
UCH37 inh = human UCH37 deubiquitinating enzyme inhibition | 0.33% of 330,000 active | AID 588478 | inhibition, % (test concentration not listed) | purified proteasome/UCH37, Ub-AMC cleavage fluorescence;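 active = mean of two replicates above 20%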;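 note: 0% = compound-free wells with enzyme and 100% = wells lacking proteasome; stock transfer was 100 nL into about 20 µL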
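System: Proteasome-associated human UCH37 deubiquitinase; Input: 0.15 nM proteasome in added enzyme buffer; Also added: Ub-AMC substrate from 1 µM stock; Incubation: 30 min compound-proteasome preincubation then 25 min substrate reaction, room temperature; Detection: fluorescence, ex 355 nm, em 460 nm; Read-out: % inhibition of Ub-AMC cleavage fluorescence; Benchmarks: no-proteasome and no-compound wells.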
LANA-H2B inh = blocks KSHV LANA binding to histone H2A/H2B; Q9QR71; cell-free LANA-H2A/H2B peptide, fluorescence polarization; inhibition, % (concentration not given with the values); 0.6% of 320,000 active; AID 2629; in the data active = inhibition mostly above about 10%, no sharp cut-off; inactive = mostly below about 6.7%;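 note: stock transfer was 7.5 nL into about 10 µL; 0% = median of vehicle wells and 100% = median of positive control wells; one replicate is shown; the record names a cut of 25% in any replicate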
Target sequence (Q9QR71 whole entry, looked up): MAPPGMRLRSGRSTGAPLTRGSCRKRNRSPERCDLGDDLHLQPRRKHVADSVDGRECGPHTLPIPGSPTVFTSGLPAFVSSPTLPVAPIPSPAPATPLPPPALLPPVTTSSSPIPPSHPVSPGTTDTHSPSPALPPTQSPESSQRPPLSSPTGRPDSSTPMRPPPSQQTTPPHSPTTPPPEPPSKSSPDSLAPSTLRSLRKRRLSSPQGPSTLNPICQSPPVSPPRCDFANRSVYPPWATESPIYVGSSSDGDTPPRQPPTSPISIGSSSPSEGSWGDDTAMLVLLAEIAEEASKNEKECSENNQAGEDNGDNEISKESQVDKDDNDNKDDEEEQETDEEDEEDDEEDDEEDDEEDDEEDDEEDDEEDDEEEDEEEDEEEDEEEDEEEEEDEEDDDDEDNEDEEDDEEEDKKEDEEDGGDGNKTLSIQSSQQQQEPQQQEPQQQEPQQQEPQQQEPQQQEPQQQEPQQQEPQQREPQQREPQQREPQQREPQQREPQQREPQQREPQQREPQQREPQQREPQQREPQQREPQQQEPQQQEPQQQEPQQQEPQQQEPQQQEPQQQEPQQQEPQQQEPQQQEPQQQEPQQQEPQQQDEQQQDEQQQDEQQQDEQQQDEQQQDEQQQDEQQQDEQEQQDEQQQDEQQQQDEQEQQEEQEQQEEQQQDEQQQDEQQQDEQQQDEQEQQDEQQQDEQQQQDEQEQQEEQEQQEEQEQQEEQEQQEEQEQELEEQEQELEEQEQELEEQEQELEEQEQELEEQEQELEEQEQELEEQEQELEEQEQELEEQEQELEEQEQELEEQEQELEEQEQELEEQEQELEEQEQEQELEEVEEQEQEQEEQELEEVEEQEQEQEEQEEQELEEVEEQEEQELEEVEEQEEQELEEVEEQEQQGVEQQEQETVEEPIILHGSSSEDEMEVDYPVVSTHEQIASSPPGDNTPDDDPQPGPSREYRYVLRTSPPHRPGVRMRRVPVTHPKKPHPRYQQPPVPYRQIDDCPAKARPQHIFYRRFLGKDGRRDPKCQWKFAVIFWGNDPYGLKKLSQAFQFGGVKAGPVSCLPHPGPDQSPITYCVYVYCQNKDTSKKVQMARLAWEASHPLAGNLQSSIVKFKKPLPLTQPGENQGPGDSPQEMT
E coli growth = inhibitors of Escherichia coli growth. OD600, 23 h; active compounds read low. OD600 absorbance (test concentration not listed). 0.21% of 330,000 active;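 active = OD600 absorbance below the run mean of sample wells minus 3.6 SD, in any replicate, cut at about 0.56 in these data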;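 note: stock transfer was 300 nL into about 60 µL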
Beta2AR agonist = agonists of human beta-2 adrenergic receptor inducing internalization; Am2.2-beta2AR cells, FAP receptor internalization, flow cytometry; reference of the scale not given here; AID 504454; P07550; response, % (test concentration not listed); 0.43% of 340,000 active;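 active = response above a set limit, near 3 SD of response in nonfluorescent compounds, cut at about 42% in these data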;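 note: stock transfer was 100 nL into about 11 µL; a reference agonist was the positive control; negative values mostly stem from fluorescent compounds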
HNF4A DNA FP = change in binding of human HNF4 alpha to DNA; P41235; HNF4a-FITC DNA binding, fluorescence polarization, 1 h; activity change, % at 10 µM; 0.3% of 360,000 active; in the data active = activity change above about 30%, passing the limit was not always enough;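 note: controls were the assay level and a saturating level of protein; the project sought stronger binding though the title names inhibitors; some compounds called inactive have numbers as strong as hits; positive values seem to mean higher polarization but the record does not say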
* marks the source's active call; other numbers are inactive results; ? = inconclusive; nt = no result given; & = joins results of further samples. Rows are unselected, and some 2.1% of all compounds hit somewhere here.

SMILES	A1 inh	Vif A3G	UCH37 inh	LANA-H2B inh	E coli growth	Beta2AR agonist	HNF4A DNA FP
Cc1cccc(N(C(=O)CCC(=O)Nc2cc(C)on2)C(C(=O)NC2CCCC2)c2cccnc2)c1 (stereo unspecified)	0.4	nt	3.1	-2.3	0.7	-6	-1.9
CNS(=O)(=O)c1ccc(NC(=O)c2ccoc2C)cc1	-7.0	3%	3.0	3.0	0.65	-2	-4.4
O=C(N/N=C/c1ccccc1Cl)c1cccc(F)c1	-9.1	7%	nt	0.5	nt	-3	1.9
CCn1c(CNc2ccccc2Cl)nnc1SCCN1CCCCC1	0.7	1%	3.2	-0.7	0.72	1	-2.7
O=C(NNC(=O)c1ccc(Br)cc1)c1ccncc1	2.4	nt	6.3	3.0	0.66	4	3.0
Cc1cc(C)c(NC(=O)c2ccc3c(c2)CCN3S(C)(=O)=O)c(C)c1	0.2	7%	1.1	1.7	0.67	-5	1.4
Cc1nc2ccccc2c(=O)n1/N=C1\C(=O)N(C)c2ccccc21	0.3	0%	nt	-4.9	nt	nt	nt
O=C(CN1C(=O)COc2ccccc21)NCCCN1CCc2ccccc2C1	3.2	3%	1.1	9.5	0.7	4	-2.0
Cc1cccc(NC(=O)CSc2nc(C3CC3)nc3ccccc23)c1	-0.6	nt	5.7	2.6	0.7	3	1.4
CC(C)(C)OC(=O)N1CCC[C@@H]1C(=O)N1CCC(C(=O)O)CC1	-0.1	5%	0.1	-0.1	nt	4	-0.4
COc1ccc(NC(=O)Cn2c(-c3ccccc3)cn(-c3ccc(C)cc3)c2=O)cc1	0.1	-6%	1.9	-3.0	0.68	-22	-0.9
CCOC(=O)/C(C#N)=C\C=C1C=CN(C)C=C1	0.5	30%	nt	-21	0.68	-34	164
CCCCN(CC)CCCNC(=O)c1ccc(CSc2nc3ccncc3[nH]2)cc1	0.5	?	2.4	-2.7	0.69	-3	3.2
COc1ccc2nc3cc(Cl)ccc3c(Nc3cc(CN4CCCC4)c(O)c(CN4CCCC4)c3)c2n1	0.5	nt	2.1	-2.0	0.68	nt	14
Cc1cc(C)nc(/N=C(\N)Nc2cccc([N+](=O)[O-])c2)n1	-0.5	-7%	nt	1.5	nt	-6	3.6
COc1ccc(C(=O)N/C(=C/c2ccco2)C(=O)N2CCCCCC2)cc1	-0.2	nt	4.7	-5.7	0.67	-2	15
CCn1c(SCC#N)nc2c(c1=O)C1(CCCC1)Cc1ccccc1-2	-1.0	?	2.4	2.1	0.74	-12	-2.6
CC(=O)Nc1ccc2sc(NC(=O)CN3CCOCC3)nc2c1	0.6	-2%	0.2	0.8	0.7	-2	-0.6
CC(C)=CC(=O)Nc1nc2ccc([N+](=O)[O-])cc2s1	nt	-10%	5.3	nt	0.71	12	-0.5
O=C(CN1C(=O)C2CC=CCC2C1=O)Nc1nc2ccccc2[nH]1 (stereo unspecified)	0.4	18%	-5.9	1.5	0.74	-2	2.6
Cc1ccc2nc(COC(=O)c3ccc(Cl)nc3)cc(=O)n2c1	2.2	-3%	-56	5.5	0.65	-12	-2.0
Nc1ccc2nc(COc3ccccc3)[nH]c2c1	0.4	nt	3.2	-4.7	0.67	7	-0.7
COc1ccc(CC(=O)NCc2ccccc2)cc1S(=O)(=O)N1CCOCC1	0.3	-11%&-2%	5.8	4.9	0.72	3	-0.1
CCNC(=O)NC(=O)C(C)On1nnc2ccc(S(=O)(=O)N(CC)CC)cc21 (stereo unspecified)	0.5	9%	6.0	0.3	0.69	-4	0.5
CC(C)(C)S(=O)(=O)N1C[C@@H]2C(=CC[C@H]3C(=O)N(c4ccccc4)C(=O)[C@@H]23)[C@@H]1CCO	nt	-2%	3.4	nt	0.7	1	-1.2
Cc1[nH]c(=O)c(C(=O)/C=C/c2ccccc2F)c2c1CCCC2	-0.2	-4%	-2.1	-2.3	0.72	36	2.2
Cc1onc(-c2ccccc2)c1CNS(=O)(=O)c1ccccc1[N+](=O)[O-]	-0.2	-1%	5.3	15	0.64	4	-1.3
Cc1ccc(-c2nn3cnnc3c3ccccc23)cc1C	0.4	-9%	5.2	1.6	0.62	-5	-13
Cc1cc(C)cc(N2C(=O)CC(N3CCOCC3)C2=O)c1 (stereo unspecified)	-0.4	28%	-0.5	12	0.72	2	-0.4
CC1CCCN(C(=O)/C(=C/c2ccco2)NC(=O)c2ccccc2)C1 (stereo unspecified)	0.2	-1%	3.3	-1.8	0.64	-1	9.1
CCN(CCO)C(=O)C12CCC(C)(C(=O)C1)C2(C)C (stereo unspecified)	1.0	-1%	1.6	1.0	0.7	-1	1.2
Nc1nc(/C=C/c2ccc(F)cc2)nc(-c2ccccc2O)n1	0.4	4%	3.4	1.5	0.69	-5	-2.0
COc1cccc(CNC(=O)C2CCCN(S(=O)(=O)c3cnc[nH]3)C2)c1 (stereo unspecified)	0.3	2%	6.5	1.3	0.75	0	1.9
CCC(=O)OCC(=O)Nc1ncc(C(F)(F)F)cc1Cl	-0.6	nt	-5.7	-0.3	0.69	2	4.6
COc1ccccc1CCNC(=O)Cn1ccc2cc(S(=O)(=O)N3CCCC3)ccc21	-1.2	-1%	1.3	11	0.66	7	-3.1
Cc1nnc(NC(=O)C2CCCN2C(=O)Nc2ccccc2)s1 (stereo unspecified)	-0.3	nt	1.3	7.4	0.62	4	0.2

Next section (2 carried over from the part before).
SMILES	A1 inh	Vif A3G	UCH37 inh	LANA-H2B inh	E coli growth	Beta2AR agonist	HNF4A DNA FP
COc1ccccc1CCNC(=O)Cn1ccc2cc(S(=O)(=O)N3CCCC3)ccc21	-1.2	-1%	1.3	11	0.66	7	-3.1
Cc1nnc(NC(=O)C2CCCN2C(=O)Nc2ccccc2)s1 (stereo unspecified)	-0.3	nt	1.3	7.4	0.62	4	0.2
CC1CCC(=O)N(CCOc2ccccc2)CC1 (stereo unspecified)	1.9	nt	-29	2.5	0.79	-5	2.6
COC(=O)Cn1c2ccccc2c2nc(=O)cc(C)n21	0.9	0%	-0.3	-9.2	0.72	-2	-2.4
CC(OC(=O)c1ccc2c(=O)n3c(nc2c1)CCCCC3)C(=O)Nc1ccc(Cl)cn1 (stereo unspecified)	0.9	-2%	-4.7	2.8	0.73	-10	1.3
O=C1CCCN1c1ccc(Br)cc1	0.6	-2%	3.6	2.4	0.73	0	1.8
C/C(=N/NC(=O)CNC(=O)CCc1ccccc1)c1ccc(Cl)c(Cl)c1	0.1	-16%	nt	-2.5	nt	-1	-1.6
COc1cc([N+](=O)[O-])ccc1NC(=O)CN1CCc2cc(OC)c(OC)cc2C1	0.2	0%	-1.5	3.6	0.64	2	4.7
CN(Cc1c(C(=O)N2CCCCCCC2)nc2ccc(Cl)cn12)C1CCOC1 (stereo unspecified)	1.7	nt	4.5	19*	0.72	-4	0.5
CSc1nc(N2CCN(Cc3ccc4c(c3)OCO4)CC2)c2ccccc2n1	0.0	2%	-2.6	-3.3	0.63	3	-1.8
Nc1nnn(CC(=O)N/N=C/c2ccccc2)n1	2.0	0%	nt	-6.4	nt	-2	1.7
O=C(Nc1ccc(S(=O)(=O)N2CCCC2)cc1)c1ccccc1	0.7	0%	5.7	2.3	0.67	7	0.1
COc1cc2c(cc1OC)CN(CC(=O)Nc1ccc(F)cc1)C(C(=O)O)C2 (stereo unspecified)	0.1	-5%	-0.2	-4.6	0.7	-4	2.1
COc1ccccc1C(=O)NNS(=O)(=O)c1ccc(F)cc1	0.3	nt	2.0	-11	0.72	6	2.1
CCN1CCN(Cc2c(O)ccc3c2O/C(=C\C=C\c2ccccc2)C3=O)CC1	0.5	nt	17	-4.3	0.67	3	16
CCOc1ccc(/C=N/NC(=O)c2cc3ccccc3cc2OC)cc1	0.8	nt	nt	5.7	nt	4	0.0
O=C(O)c1ccccc1-c1ccccc1C(=O)Nc1ccc(OC(F)(F)F)cc1	0.5	nt	2.7	1.0	0.66	19	-2.0
Cc1cccnc1NC(=O)c1ccc2nc(N)sc2c1	-0.3	-9%	3.8	5.5	0.71	1	-1.9
CN(C)c1ncnc2c1ccn2C1OC(CO)C(O)C1O (stereo unspecified)	nt	1%	nt	nt	nt	-3	-2.0
O=C(c1cc(-c2ccc3c(c2)OCO3)on1)N1CCN(c2ccc(F)cc2)CC1	nt	-4%	2.3	nt	0.66	6	4.4
CC1CCN(C(=O)CN(c2ccc3c(c2)OCCO3)S(=O)(=O)c2ccccc2)CC1	-0.2	nt	2.8	0.2	0.68	-6	3.0
COc1ccc(CONS(=O)(=O)c2ccc(NC(C)=O)cc2)cc1Cl	-0.3	-8%	3.6	0.3	0.68	-1	-2.1
O=C(CCN1C(=O)c2ccccc2C1=O)Nc1cccc(F)c1	0.3	-5%	4.6	-1.5	0.68	-3	2.6
CCCNC(=O)c1cccc(S(=O)(=O)N2CC3(C)CC2CC(C)(C)C3)c1 (stereo unspecified)	0.1	nt	nt	2.7	nt	1	0.4
COC(=O)c1ccccc1NC(=O)c1cc(-c2ccc(O)cc2)on1	-0.2	-1%	-0.6	2.0	0.7	-18	13
O=C(Nc1cccc(S(=O)(=O)N2CCOCC2)c1)c1cc2c(s1)CCC2	1.0	-11%	2.3	0.5	0.72	-6	3.4
COc1cccc(C(=O)NNS(=O)(=O)c2ccc(F)cc2)c1	0.1	nt	1.7	1.0	0.71	-1	6.8
COc1cc(C(=O)Nc2ccc(Oc3ncnc4sc(-c5ccccc5)cc34)cc2)cc(OC)c1OC	-0.2	-48%	-4.1	-4.4	0.67	9	-1.4
COc1ccc(Cl)cc1NC(=O)C(C)OC(=O)c1ccc(NS(=O)(=O)c2ccc3[nH]c(=O)[nH]c3c2)cc1 (stereo unspecified)	-0.3	nt	-0.9	2.9	0.71	-13	-2.1
Cn1c(=O)n(C)c2cc([N+](=O)[O-])c(N3CCN(S(=O)(=O)c4ccc5ccccc5c4)CC3)cc21	0.0	5%	3.0	0.8	0.7	1	3.1
CN(Cc1nc2ccccc2n1C)C(=O)c1ccco1	-0.5	1%	0.8	-2.1	0.72	-3	-2.1
CN(C(=O)c1ccncc1)c1nnc(-c2cccnc2)s1	-0.6	10%	0.6	1.1	0.72	-9	5.3
Cc1ccc(C(=O)NCC(=O)O)o1	1.2	-3%	0.7	-1.1	0.69	-5	-4.1
COc1cccc(CN2CCNC(=O)C2CC(=O)NC2CCCCCCC2)c1 (stereo unspecified)	0.8	11%	-0.9	-3.9	0.63	6	2.4
CCCCNS(=O)(=O)c1ccc2nc(SCC(=O)N3CC(C)OC(C)C3)[nH]c2c1 (stereo unspecified)	-0.1	8%	-1.8	2.0	0.66	5	-0.5
c1cncc(CNc2ncnc3sc4c(c23)CCCC4)c1	0.1	-5%	2.4	-4.7	0.7	-5	4.0
CCn1cc(C(=O)NCc2ccc(C)o2)c2cc(OC)c(OC)cc2c1=O	0.2	3%	6.6	2.9	0.69	2	0.9
Cc1ccc(-n2ncc3c2CCCC3NC(=O)c2ccccc2N2CCOCC2)cc1C (stereo unspecified)	0.0	5%	-1.6	1.3	0.66	-3	-1.4
COc1cc(C2CC(=O)c3c(ccc4ccccc34)N2)ccc1O (stereo unspecified)	-0.4	nt	0.3	-5.7	0.7	-1	0.5
COc1ccc(C2=NN(c3nc4ccccc4s3)C(=O)/C2=C\N(C)C)cc1	0.5	nt	-4.6	1.3	nt	0	-0.7
C/C(=N/NC(=O)c1cc(Cl)ccc1O)C12CC3CC(CC(C3)C1)C2	0.6	17%	nt	1.2	nt	0	-0.5
